# H5N1 antiviral = MDCK cell protection from H5N1 avian flu | AID 740, 2007 | 0.07% of 96,000 active | cytopathic effect, luminescence, 72 h; hits give high values; no value below 0 was filed and about half of the inactive calls have no number; reference of the scale not given here | inhibition, % at 50 µM; in the data active means inhibition above about 25%
# * = called active by the depositor; i = inactive. An excerpt. The share of hits here may be higher or lower than overall.
SMILES,H5N1 antiviral
CCOC(=O)c1c(C)nc2sc3c(=O)n(-c4ccc(OC)cc4)nnc3c2c1-c1ccc(OC)cc1,i
O=C(NCCCNC(=O)c1ccco1)c1ccco1,1.7
O=C1c2ccccc2C(=O)N1SC1CCCCC1,0.6
Cc1nnc(SCC(=O)Nc2ncc3c(n2)CC(c2ccccc2)CC3=O)s1 (configuration not stated),1.2
CCCCNC(=O)c1onc(CSc2cccc(C)c2)c1C(=O)O,i
CCOC(=O)N1CCC(NC(=O)CSc2cc(=O)n(CC)c3ccccc23)CC1,0.2
O=C(c1ccco1)N1CCN(C(=O)c2cnn3c2NC(c2cccs2)CC3C(F)(F)F)CC1 (configuration not stated),0.2
O=C(CSCc1ccc(Cl)cc1)N/N=C/c1ccccc1,i
COc1cccc(C(=O)CSc2nnc(CNS(C)(=O)=O)n2-c2ccc(C)cc2)c1,0.9
COc1ccccc1N1CCN(C(=O)c2ccc(CN3CCc4ccccc4C3)cc2)CC1,1.4
CCSc1cc(C)nc2c(-c3ccc(Cl)cc3)c(C)nn12,1.0
Cc1ccc2c(c1)c1c(n2CC(O)CNC(C)(C)C)CCCC1 (configuration not stated),i
CCCc1cc(=O)[nH]c(SCC(=O)Nc2ccc(OC(F)F)cc2)n1,i
CCN(CC)c1ccc(NC(=O)c2cccc(C)c2OC)c(C)c1,2.4
COc1ccccc1OCC(=O)NC1CCCCCC1,i
O=C(NCCSc1ccccc1)c1ccccc1,0.3
Cc1ccc(S(=O)(=O)N(Cc2ccccc2)c2ccccc2C(=O)NCc2ccco2)cc1,4.5
CC(C)n1c(CNC(=O)c2ccccc2)nc2ccccc21,0.4
Cc1snc(S(=O)(=O)/C(C#N)=N\Nc2ccccc2)c1C#N,1.9
COc1ccc(Cn2c(CCC(=O)Nc3ccc(C)c(C)c3)nc3cccnc32)cc1,i

# In the list so far, these have a Cl atom:
SMILES,H5N1 antiviral
O=C(CSCc1ccc(Cl)cc1)N/N=C/c1ccccc1,i
CCSc1cc(C)nc2c(-c3ccc(Cl)cc3)c(C)nn12,1.0

# Looked up above.
# O=C(NCCSc1ccccc1)c1ccccc1 in H5N1 antiviral = 0.3
# CC(C)n1c(CNC(=O)c2ccccc2)nc2ccccc21 in H5N1 antiviral = 0.4
# CCSc1cc(C)nc2c(-c3ccc(Cl)cc3)c(C)nn12 in H5N1 antiviral = 1.0
# Cc1snc(S(=O)(=O)/C(C#N)=N\Nc2ccccc2)c1C#N in H5N1 antiviral = 1.9
# COc1cccc(C(=O)CSc2nnc(CNS(C)(=O)=O)n2-c2ccc(C)cc2)c1 in H5N1 antiviral = 0.9

# Remaining list, next part:
SMILES,H5N1 antiviral
CCOc1ccc(S(=O)(=O)n2cc(-c3ccccc3)c(N)n2)cc1,0.8
COc1ccc(OC)c(NC(=O)CCN2CCN(c3ccccc3)CC2)c1,i
O=C(Cn1c(=O)sc2ccccc21)N1CCOCC1,1.0
CC(OC(=O)CCc1nc2ccccc2[nH]c1=O)C(=O)c1ccccc1 (configuration not stated),0.3
O=c1c2cc(-c3ccccc3)sc2ncn1-n1cccc1,0.4
CCCC(=O)Nc1sc2c(c1C#N)CCCC2,0.6
Cc1c(CCO)c(=O)n(C)n1C(=O)c1ccc(F)cc1,i
C=CCOc1c(CNc2ncn[nH]2)cccc1OC,0.1
C=C(C)CSc1nc(N)c(C#N)c(-c2ccc(C)cc2)c1C#N,i
Cc1cc(N2CCOCC2)n2ncc(-c3ccccc3)c2n1,1.6
Cc1cccc(N2CCN(C(=O)n3ccnc3)CC2)c1C,i
COc1ccc(-n2nnnc2SCc2nc3ccccc3s2)cc1,1.2
CC(C)(C)NC(=O)CN(C(=O)c1ccc(CN2CCOCC2)o1)c1ccc2c(c1)OCCO2,0.1
COc1cc(C)nc(SCC(N)=O)n1,0.1
CCOC(=O)c1c(-c2cccc(C)c2)csc1NC(=O)C1CC=CCC1C(=O)O (configuration not stated),i
CSC1=NP(=S)(SC)N(C)c2nc3n(c21)CCC3 (configuration not stated),0.5
COC(=O)c1nc(NC(=O)C(C)C)n[nH]1,1.6
CCOC(=O)c1ccc(-n2c(C)nc3ccccc3c2=O)cc1,i
CCN=C1SC(CC(=O)Nc2ccc(N3CCOCC3)cc2)C(=O)N1CC (configuration not stated),0.3
O=C(CNCCO)NC12CC3CC(CC(C3)C1)C2,1.1
COc1ccc(-c2nc3ccccc3o2)cc1NC(=O)c1ccc(Br)o1,0.3
CCOc1ccc(C(=O)NCC(=O)OC2CCOC2=O)cc1OCC (configuration not stated),i
O=C(N/N=C/c1ccc(O)cc1)c1ccc(NC(=O)c2ccccc2Br)cc1,0.6
Nc1c(Cl)cc2c(c1Oc1ccccc1)C(=O)c1ccccc1C2=O,i
NC(=O)C1CCN(CC(=O)Nc2ccccn2)CC1,0.9
O=C1C2C3CCCC3=C3CCCC3C2C(=O)N1c1ccc(F)cc1 (configuration not stated),i
COc1ccc(C(CNC(=O)c2cccc(N(C)C)c2)N2CCCC2)cc1 (configuration not stated),i
C=CCN1C2CCCC1CC(NC(=O)Nc1cccc(C(C)=O)c1)C2 (configuration not stated),0.2
COc1ccc(C2=CC(=O)OC3(CCCCC3)O2)cc1,3.9
CCOC(=O)c1c(C)nc2c3ccccc3ccn12,i
O=C(NCCN1CCN(C(=O)c2cccs2)CC1)C(=O)Nc1ccc(Br)cc1,i
Cc1cc(C)nc(SCCC(=O)Nc2cccc3ccccc23)n1,i
COc1ccc(NC(=O)C2CCCCN2N)cc1OCC(C)C (configuration not stated),i
CCCc1c(O)nc(SCC(=O)NCCc2ccc(OC)c(OC)c2)[nH]c1=O,i
O=C(O)CCC(=O)N1CCN(c2nc(-c3ccccc3Cl)c3cc(Br)ccc3n2)CC1,0.7
COc1ccc2cc(S(=O)(=O)NCCCN3CCOCC3)ccc2c1,i
CCCCc1sc(-c2c(C#N)c(N)nc3c2CCCCC3)cc1[N+](=O)[O-],i
O=C(NC(NCc1ccccn1)(C(F)(F)F)C(F)(F)F)c1ccco1,0.4
O=S(=O)(c1ccc(OCC(O)CN2CCN(c3ccccc3O)CC2)cc1)N1CCOCC1 (configuration not stated),4.5
CCNCCNC(=O)c1c(O)c2ccccc2n(CC)c1=O,0.6
COc1ccc(CCN2C(=NC(=O)CC(C)C)SC3CS(=O)(=O)CC32)cc1 (configuration not stated),1.2
C=CCn1c(N)cc(=O)nc1SCC(=O)Nc1cccc2ccccc12,i
C(=C\c1ccccc1)/CSc1nnc(-c2cccnc2)n1Cc1ccco1,i
O=C(CSc1ccccc1)Nc1ccc(N2CCOCC2)cc1,1.5
COc1ccc(CC(=O)N2CCOCC2)cc1OC,i
OC(c1cccs1)(c1cccs1)C1C[N+]2(CF)CCC1CC2 (configuration not stated),i
CCOc1ccc(C(=O)Nc2ccc(Cl)cn2)cc1Cl,i
CCCCNC(=O)c1ccc2c(c1)N(CC)C(=O)c1ccccc1S2(=O)=O,0.6
CCC(=O)Nc1cccc(NC(=O)CSc2nnc(-c3ccc(NS(C)(=O)=O)cc3)n2C)c1,0.1
CCOC(=O)C1CCN(c2c(NCCN3CCN(c4ccccc4)CC3)c(=O)c2=O)CC1,0.7
Oc1ccccc1-c1cc(-c2ccccc2)no1,1.3
CC(=O)Nc1ccc(C(=O)OCCC(C)C)cc1,i
CCN(C(=O)CSc1ncccc1C(=O)OC(C)C)c1cccc(C)c1,i
CC(C)Cc1nc(N2CCCCC2)c(C#N)c2c1CCC2,0.2
COc1cc2c(cc1NC(=O)CN(C)Cc1nc3ccccc3c(=O)[nH]1)oc1ccccc12,i
CCOCCOCN(C#N)c1nc(OC)nc(N(C)C)n1,0.5
Cc1ccc(N(C(=O)C2CCCC2)C2C=CS(=O)(=O)C2)cc1 (configuration not stated),0.2
Cc1ccc(CN2C(=O)CSc3ccc(C(=O)NCCN4CCOCC4)cc32)cc1,2.6
CCOC(=O)C1=C(C)OC(N)=C(C#N)C1c1c(C)nn(-c2ccccc2)c1Cl (configuration not stated),i
CCOC(=O)N1CCc2c(sc3nc4n(c(=O)c23)N=C(C)CS4)C1,i

# The list continues:
SMILES,H5N1 antiviral
CCCCOc1ccc(S(=O)(=O)NCc2csc(C)n2)cc1,i
O=C(Nc1ccncc1)c1cccc(F)c1,0.3
CCc1ccccc1OCC(=O)NC1CCCC1,0.9
O=C(CSc1ccc2c(c1)OCCO2)NCC1CCCO1 (configuration not stated),i
Cc1occc1C(=O)NNC(=S)Nc1ccccc1,0.2
Cc1cc(C)n(-c2nc(NCCC(C)C)c3c4c(sc3n2)COC(C)(C)C4)n1,6.0
CS(=O)(=O)NC1CCN(Cc2ccccc2)CC1,i
O=C1C(Cl)=C(N2CCOCC2)C(=O)N1c1ccccc1,i
Cc1ccc(C(=O)Nc2ccc(O)c(C(=O)O)c2)o1,i
CCc1nc2ccccc2c(C(=O)OC2CCOC2=O)c1C (configuration not stated),i
O=c1c2cc3c(cc2[nH]c(=S)n1CCN1CCOCC1)OCO3,0.9
Cc1ccc(OCC(=O)N/N=C\c2cn(C)c3ccccc23)c([N+](=O)[O-])c1,0.3
CCOC(=O)C1CCN(C(=O)Cn2cc(C(=O)c3ccco3)c3ccccc32)CC1,0.1
COc1cccc2sc(Nc3nnc(-c4ccc(F)cc4)o3)nc12,2.3
CCn1c(=O)n(Cc2ccco2)c(=N)c2c3c(sc21)COC(C)(C)C3,0.4
CCNC(=S)NNC(=O)c1cc(C)on1,i
COc1cccc(NC(=O)CSc2ncnc3c2cnn3Cc2ccccc2)c1,i
Cc1c(CCO)c(=O)[nH]n1C(=O)c1c(F)cccc1F,i
CCOC(=O)C1=C(CSc2nncn2C)NC(=O)NC1c1cc(OCC)ccc1OCC (configuration not stated),0.2
Clc1ccc(SCc2cn3cccnc3n2)cc1,0.6
O=C(O)C1Cc2ccccc2CN1S(=O)(=O)c1ccc2ccccc2c1 (configuration not stated),1.8
O=S(=O)(NCC1CCCO1)c1ccc(S(=O)(=O)N2CCc3ccccc3C2)cc1 (configuration not stated),i
COc1ccc(C2C(C(=O)OCC(=O)N3CCCCC3)CCC(=O)N2c2ccc(OC)cc2)cc1 (configuration not stated),i
CCN(CC)S(=O)(=O)c1ccc(Nc2nc3ccccc3n3nnnc23)cc1,i
CC(C)CNc1ncnc2c1sc1nc(N3CCOCC3)c3c(c12)CC(C)(C)OC3,0.2
COc1ccc(N2CCN(S(=O)(=O)Cc3ccccc3)CC2)cc1,i
Cc1ccc(S(=O)(=O)Nc2nsc(N)n2)cc1,2.1
CC(=O)Nc1ccc2nc(-c3ccncc3)[nH]c2c1,0.4
O=S(=O)(Nc1ccc(S(=O)(=O)N2CCOCC2)cc1)c1ccccc1,1.1
CCN(CC)c1ccc(NC(=O)CN2CCN(S(=O)(=O)c3cc(Cl)ccc3OC)CC2)cc1,i
CCn1c(CNc2ccc(Cl)cc2)nnc1SCc1ccccc1,0.1
FC(F)(F)c1nnc(-c2ccccc2)nc1Sc1ccc(Cl)cc1,0.3
O=C(CSCC(=O)NCc1ccco1)NCc1ccco1,2.1
CCn1cnc2c(cnn2-c2ccccc2)c1=O,0.4
Cc1noc(C)c1COC(=O)c1ccccc1NC(=O)Cc1ccccc1,1.6
COCCN(C(=O)CNC(=O)c1cccs1)C(C(=O)NC1CCCC1)c1cccs1 (configuration not stated),0.3
CCOC(=O)N1CCC(NC(=O)CCc2c(C)nc3nc(C)nn3c2C)CC1,1.3
C1=C(c2ccc(-c3ccccc3)cc2)Nc2ncnn2C1c1ccco1 (configuration not stated),i
Cc1cc(C)n2c(SCc3cccs3)nnc2n1,2.7
Clc1ccccc1-c1nnn(Cc2ccc(-c3nn[nH]n3)cc2)n1,i

# Gathered by group, the entries above with a tert-butyl group (2)
SMILES,H5N1 antiviral
Cc1ccc2c(c1)c1c(n2CC(O)CNC(C)(C)C)CCCC1 (configuration not stated),i
CC(C)(C)NC(=O)CN(C(=O)c1ccc(CN2CCOCC2)o1)c1ccc2c(c1)OCCO2,0.1

# Quoted from above for reference:
SMILES,H5N1 antiviral
COc1ccccc1OCC(=O)NC1CCCCCC1,i
O=C(NCCSc1ccccc1)c1ccccc1,0.3
Cc1ccc(S(=O)(=O)N(Cc2ccccc2)c2ccccc2C(=O)NCc2ccco2)cc1,4.5

# Next entries follow.
SMILES,H5N1 antiviral
COc1cccc2c1C(=O)c1ccc3ccccc3c1C2=O,i
CC1(C)CC(=O)C(CC(=O)Nc2ccc(S(N)(=O)=O)cc2)=C(O)C1,i
CCCc1[nH]nc2c1C(c1ccc(OC)c(Cn3nc(C)c(Br)c3C)c1)C(C#N)=C(N)O2 (configuration not stated),1.6
COc1ccc(NC(=O)CC(NCCc2ccccc2)C(=O)O)c(OC)c1 (configuration not stated),i
COC(=O)CCS(=O)(=O)c1ccc(NC(C)=O)cc1,0.8
CCOc1ccc2nc(NC(=O)C3CCN(S(=O)(=O)c4cnc[nH]4)CC3)sc2c1,i
NS(=O)(=O)c1ccc(CCNC(=O)C2Cc3ccccc3CN2C(=O)c2ccco2)cc1 (configuration not stated),i
Cc1ccccc1C(=O)c1cccn1CC(=O)NCC1CCCO1 (configuration not stated),0.1
COc1ccc([N+](=O)[O-])cc1NC1CCCCC1,i
CNS(=O)(=O)c1ccc(C)cc1,i
CCCC(=O)c1cc(F)c(N2CCN(CCC#N)CC2)cc1C,i
CCCCCCn1c(C(C)O)nc2ccccc21 (configuration not stated),0.6
CC1(c2ccc(Cl)c(Cl)c2)NC(=S)N2C1NC(=S)N2c1ccccc1 (configuration not stated),i
O=S(=O)(NCCNS(=O)(=O)c1cccs1)c1cccs1,1.3
O=C(CN1CCc2ccccc21)Nc1ccc2c(c1)OCO2,i
CCS(=O)(=O)Nc1cccc(C2=NN(S(=O)(=O)c3ccccc3)C(c3cccs3)C2)c1 (configuration not stated),0.7
CC(C)(C)Cc1nnc(NC(=O)c2cc(-c3ccccc3)nc3ccccc23)s1,i
Cc1cc2ncc(-c3ccc(Cl)cc3)c(N)n2n1,0.8
CCOC(=O)CCn1nc(-c2ccccc2)cc1N,i
C=CCNC(=S)NNC(=O)c1ccc2c(c1)OCO2,3.0
CCOC(=O)c1cnc(-c2cccc(OC)c2)[nH]c1=O,9.2
COc1ccc(CCn2c(=N)c(C(=O)N3CCN(C)CC3)cc3c(=O)n4ccccc4nc32)cc1,3.9
CC(=O)Nc1ccc(S(=O)(=O)Nc2cccc(NC(=O)C(C)(C)C)c2)cc1,0.7
OC(COCc1ccccc1)CN1CCCC1 (configuration not stated),0.1

# Bioassay records: PubChem, SRMLSC
